miR-21 reporter = raises the signal of a miR-21 reporter; AID 2288; 340,000 tested, under 10 active; HeLa miR-21 FLuc reporter, luciferase, 48 h; Potency, µM (series often up to 38.3 µM), without a hit: at the highest dose reporter change, positive = more light; active = well fitted rising curve with a large enough effect; inconclusive = small, poorly fitted or top-dose-only effect; inactive = no such curve, though single readings can be large or run the other way;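 note: % of control where 0% means no effect; miR-21 action dims this reporter so a rising signal means less miR-21 action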
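Luminescence from a firefly luciferase reporter carrying a miR-21 binding site downstream, stably expressed under a CMV promoter in HeLa cells that make miR-21 endogenously, reports miRNA modulation after 48 h compound exposure up to approximately 40uM final.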
Numbers without * were called inactive; u = inconclusive. The list is partial; count on the stated rates, not on these rows.

SMILES	miR-21 reporter
COc1ccc(Cl)cc1NC(=O)CSC1=Nc2ccccc2C2=NC(CCC(=O)NCc3ccc(F)cc3)C(=O)N12 (stereo not given)	-5%
O=C(CSc1n[nH]c(-c2ccccc2Cl)n1)N1CCN(c2ccccc2)CC1	-7%
Cc1ccccc1OCC(=O)OCc1cc(=O)n2ccsc2n1	0%
CCc1ccc(S(=O)(=O)NCc2nc3cccnc3n2Cc2ccccc2Cl)cc1	1%
Cc1ccc2c(CNCc3ccc(C)o3)c(C(=O)O)n(Cc3ccc(F)cc3)c2c1	8%
O=C(CN1C(=O)c2cccc3cccc1c23)Nc1ccccc1Br	-4%
Cc1ccc(S(=O)(=O)c2nnn(CC(=O)Nc3ccccc3C)c2N)cc1C	-1%
CCOc1cccc(CC(=O)N2CCc3c([nH]c4ccccc34)C2c2ccc(Cl)cc2)c1OCC (stereo not given)	17%
COc1ccc(Cl)cc1NS(=O)(=O)c1ccc2c(c1)NC(=O)CC(=O)N2	6%
CC(=O)c1cc(-c2ccccc2)n(CC(=O)NCCc2ccc(C)cc2)c1C	9%
COc1cccc(C2C=C(c3ccccc3)Nc3c(C(=O)Nc4ccccc4)cnn32)c1OC (stereo not given)	-3%
CC(C)CN(CCCNC(=O)c1cc(=O)[nH]c2ccc(S(=O)(=O)N3CCCC3)cc12)CC(C)C	-7%
COc1ccc(N2C(=O)CS(=O)(=O)C23C(=O)N(Cc2ccccc2F)c2ccccc23)cc1Cl (stereo not given)	-10%
COc1ccc(OC)c(NC(=O)CSC2=Nc3ccccc3C3=NC(CC(=O)NCc4ccc(F)cc4)C(=O)N23)c1 (stereo not given)	1%
Cc1nnc(N2CCC(C(=O)NCCc3ccccc3)CC2)c2nn(-c3ccc(Cl)cc3)c(C)c12	0%
COC(=O)c1c(NC(=O)COc2c(C)cccc2C)sc2c1CCCC2	0%
CCOc1ccc(C(=O)Nc2cccc(-c3nc4cc(Cl)cc(Cl)c4o3)c2)cc1	3%
Cc1ccc(Cl)cc1-n1c(=O)c2sc3ccccc3c2n(CC(=O)NC2CCCC2)c1=O	0%
COc1cc2c(cc1OC)C(COc1ccc3c(C)cc(=O)oc3c1)N(C(=O)c1cc(Cl)ccc1OC)CC2 (stereo not given)	-8%
COc1ccc(/C=C\c2onc(C)c2S(=O)(=O)N2CCC(C(=O)Nc3cccc(C)c3C)CC2)cc1	-2%
Cc1ccc(S(=O)(=O)c2nnn3c2nc(N(C)Cc2ccccc2)c2cc(Cl)ccc23)cc1C	-1%
COc1ccc(N2Cc3cccc(C(=O)Nc4cc(C)cc(C)c4)c3C2=O)cc1	-3%
Cc1ccc(-c2cn3c(n2)sc2cc(C(=O)NCCCN4CCCCCC4)ccc23)cc1	-2%
COc1ccc(Cl)cc1NC(=O)N1CCN(S(=O)(=O)c2ccc3c(ccn3C)c2)CC1	-1%
Cc1ccc(-c2nnc(SCC(=O)c3ccc(Cl)cc3)n2-c2ccccc2)cc1	2%

Exported field by field: part of the list above.
O=C(CN1C(=O)c2cccc3cccc1c23)Nc1ccccc1Br
  miR-21 reporter = -4%

Cc1ccc(S(=O)(=O)c2nnn(CC(=O)Nc3ccccc3C)c2N)cc1C
  miR-21 reporter = -1%

Arranged by length of the SMILES (low to high): some entries from above
SMILES	miR-21 reporter
COc1ccc(Cl)cc1NS(=O)(=O)c1ccc2c(c1)NC(=O)CC(=O)N2	6%
Cc1ccc(-c2cn3c(n2)sc2cc(C(=O)NCCCN4CCCCCC4)ccc23)cc1	-2%
CC(C)CN(CCCNC(=O)c1cc(=O)[nH]c2ccc(S(=O)(=O)N3CCCC3)cc12)CC(C)C	-7%
COc1ccc(OC)c(NC(=O)CSC2=Nc3ccccc3C3=NC(CC(=O)NCc4ccc(F)cc4)C(=O)N23)c1 (stereo not given)	1%

The listing continues.
SMILES	miR-21 reporter
O=C(Nc1ccc(F)cc1)c1ccc(Cn2nc(N3CCN(c4ccccc4)CC3)ccc2=O)o1	u
Cc1cccc(N2CCN(C(=O)CN3C(=O)COc4ccc(S(=O)(=O)N5CCC(C)CC5)cc43)CC2C)c1 (stereo not given)	8%
CCOc1ccc(NC(=O)Cn2c(=O)n(CC(=O)NCc3ccccc3Cl)c(=O)c3sccc32)cc1	7%
Cc1ccc(NC(=O)C2CCC(CNS(=O)(=O)c3csc(C(N)=O)c3)CC2)cc1Cl (stereo not given)	-20%
COc1ccc(NC(=O)C2CCN(C(=O)c3sc4nc[nH]c(=O)c4c3C)CC2)cc1Cl	1%
COc1cccc(N2CC(NC(=O)c3cccc(OC)c3OC)CC2=O)c1 (stereo not given)	1%
COc1ccc(-c2nn(-c3ccccc3)cc2C2NC(=O)NC(C)=C2C(=O)OC(C)C)cc1Cl (stereo not given)	u
COCCNC(=O)c1ccc2c(c1)ncn2-c1cc(C)ccc1OC	-9%
O=C1CC(c2cc(F)cc(F)c2)c2cc3c(cc2N1)OCO3 (stereo not given)	15%
O=C(Nc1ccc(F)c(Cl)c1)C1CCCN(S(=O)(=O)c2cccc3nsnc23)C1 (stereo not given)	24%
CCN1CCN(CCCNC(=O)Cn2c(-c3cccs3)cc3cc(Cl)ccc32)CC1	-7%
CCOCCCNC(=O)c1c(NC(=O)Cc2coc3ccc(C)cc23)sc2c1CCC2	5%
COc1ccc2c(c1)c(=O)c(C(=O)c1ccc(Cl)cc1)cn2CC(=O)Nc1ccc2c(c1)OCO2	-3%
CCCCNC(=O)C1CCC(CNS(=O)(=O)c2ccc(Cl)cc2)CC1 (stereo not given)	0%
CC(=O)Nc1ccc(S(=O)(=O)NC2=NCN(C(C)C)CN2)cc1	7%
COc1ccc(C(CNC(=O)c2oc3ccc(C)cc3c2C)N2CCOCC2)cc1 (stereo not given)	-6%
O=C(Cc1ccc(Cl)cc1)NCCc1csc2nc(-c3ccccc3F)nn12	0%
COc1ccc(NC(=O)CSc2nc(-c3ccccc3)nc3cc(=O)[nH]n23)cc1	-13%
COCCCNC(=O)CN1C(=O)c2cccnc2Sc2ccccc21	-4%
Cn1c(=O)oc2cc(S(=O)(=O)NCCC(=O)Nc3ccc(F)cc3F)ccc21	-1%
COCCCNC(=O)C1CCC(Cn2c(=O)c3sccc3n(C)c2=O)CC1 (stereo not given)	-4%
CCc1ccc(NC(=O)CSC2=Nc3ccccc3C3=NC(CC(=O)NCc4ccccc4)C(=O)N23)cc1 (stereo not given)	-17%
COc1ccc(-c2noc(CNC(=O)c3ccco3)n2)cc1	-16%
CCOc1ccc(N2CC(c3nc4ccccc4n3Cc3cccc(C)c3)CC2=O)cc1 (stereo not given)	6%
O=C(O)C1Nc2c(cccc2C(F)(F)F)C2C=CCC12 (stereo not given)	-6%
Other compounds follow:
SMILES	miR-21 reporter
CCNC(=O)c1ccc2c(c1)sc1nc(-c3cccc(OC)c3)cn12	-2%
CCOC(=O)C1CCN(C(=O)CSc2n[nH]c(-c3ccc(F)cc3)n2)CC1	10%
Cc1ccc(OCc2cc(=O)n3cc(C)sc3n2)c(C)c1	-15%
CC(=O)c1ccc(NC(=O)c2noc3c2CCc2ccccc2-3)cc1	-40%
CCOc1ccccc1C(=O)Nc1cc2c(cc1N1CCCCC1)n(C)c(=O)n2C	u
COc1cccc(Nc2nc3cc(Cl)c(Cl)cc3nc2-n2nc(C)cc2C)c1	0%
COc1cc(OC)c(NC(=O)n2ncc3cc(Cl)ccc32)cc1Cl	-6%
CC(=O)c1ccc(C(=O)Nc2sc3c(c2C(N)=O)CCN(Cc2ccccc2)C3)cc1	9%
COc1ccc(-n2nc(C(=O)Nc3ccc(Cl)cn3)c3c4ccccc4n(C)c3c2=O)cc1	-1%
CC(NC(=O)c1cc(Sc2ccc(F)cc2F)nc2ccccc12)c1ccccc1 (stereo not given)	19%
CCOc1ccc2oc(=O)cc(CN3CCN(Cc4ccc(C)cc4)CC3)c2c1	-4%
COc1ccc(/C=C/C(=O)Nc2ccc3nc(N4CCC(C)CC4)cc(C)c3c2)cc1	17%
COc1cc(NC(=O)c2ccc(-n3cnc4cccnc43)cc2)cc(OC)c1	6%
CCc1ccc(NCc2cc3cc4c(cc3n(CC(=O)Nc3ccccc3OC)c2=O)OCCO4)cc1	-8%
CCCOC(=O)c1c(-c2ccccc2)c(-c2ccccc2)nn(C)c1=O	u
CCc1cccc(C)c1NC(=O)CSc1nc2ccccc2nc1Cc1ccccc1	0%
CCc1ccc(-n2nc3ccc(NC(=O)c4cc(Cl)c(OC)c(Cl)c4)cc3n2)cc1	-5%
CCN(CC)S(=O)(=O)c1ccc2c(c1)c(=O)c(C(=O)NCc1ccccc1)cn2C	-6%
Cc1cccc(CNC(=O)Cn2ccc3cc(S(=O)(=O)N4CCC(C)CC4)ccc32)c1	-3%
COc1ccc(C2CC(=O)c3cc(-c4nc(-c5ccc(Cl)cc5)cs4)c(=O)[nH]c3C2)cc1OC (stereo not given)	-2%
COCCNC(=O)c1cnn(-c2ccc(C)cc2C)c1C1CCN(C(=O)OC(C)(C)C)CC1	-4%
CCCCn1c(C2CC(=O)N(c3ccc(OCC)cc3)C2)nc2ccccc21 (stereo not given)	-1%
Cc1ccc(C)c(N(C)C(=O)C2CCN(S(=O)(=O)c3cccc4nsnc34)CC2)c1	24%
Cc1cccc(C(=O)n2nc(C)c(S(=O)(=O)N3CCOCC3)c2C)c1	3%
COc1ccc(C(=O)NCc2nnc(SCC(=O)Nc3ccc(F)cc3)n2-c2ccccc2)cc1	0%

Brought forward from above: two entries, followed by the next part.
SMILES	miR-21 reporter
Cc1cccc(C(=O)n2nc(C)c(S(=O)(=O)N3CCOCC3)c2C)c1	3%
COc1ccc(C(=O)NCc2nnc(SCC(=O)Nc3ccc(F)cc3)n2-c2ccccc2)cc1	0%
CCOC(=O)c1cccc(NC(=O)c2ccc3nc(C(C)C)oc3c2)c1	-14%
CCN1CCN(C(c2ccccc2F)c2c(O)cc(C)n(CCOC)c2=O)CC1 (stereo not given)	2%
O=C(Nc1ccc(Cl)cc1)C1CCN(S(=O)(=O)c2ccc(Br)s2)CC1	u
Cc1ccc(-n2nc(C)c3c(C(=O)NCCc4ccccc4)cc(C)nc32)cc1	5%
COc1cccc(CNC(=O)c2cc(-c3ccc(Cl)s3)nc3ccccc23)c1	0%
COc1cccc(CNC(=O)c2cc(C)nc3c2c(C)nn3-c2cccc(F)c2)c1	-6%
COc1ccc(-c2cc3ccc(O)c(CN4CCC(C)CC4)c3oc2=O)cc1	0%
COc1ccc2cc(-c3nc(-c4ccc(N(C)C)cc4)no3)c(=O)oc2c1	-3%
O=C(Nc1cccc(F)c1)c1ccc2snnc2c1	-8%
CCc1ccc(C2C(C(=O)Nc3ccccc3)=C(C)Nc3nc(SCC(=O)c4ccc(C)cc4)nn32)cc1 (stereo not given)	-4%
O=C(Nc1ccc2c(c1)CCCN2C(=O)c1cccs1)c1ccccc1Cl	18%
Cn1nnnc1SCCNCc1ccccc1OCc1ccccc1F	23%
CCCN1CCN(C(=O)Cn2c(-c3cccs3)cc3cc(F)ccc32)CC1	-18%
O=C(NCc1ccc(Cl)cc1)c1cc(-c2ccc(F)cc2)on1	-1%
CCOc1ccc(N2CC(c3nc4ccccc4n3CCOc3ccccc3)CC2=O)cc1 (stereo not given)	-2%
CCc1nc2ccc(C(=O)NCc3ccc(OC)c(OC)c3)cc2nc1CC	9%
O=c1oc2ccccc2cc1-c1nnc(Nc2ccc(Cl)cc2Cl)s1	-3%
O=C(Nc1ccc(O)cc1)c1cccc(S(=O)(=O)N2CCOCC2)c1	-10%
Clc1ccccc1CNc1nc2ccccc2c2nc(-c3cccnc3)nn12	3%
CCN1CCN(CCCNC(=O)c2ccc3nc(Cc4ccc(OC)cc4)oc3c2)CC1	-4%
CC1CCC(NC(=O)c2ccc3c(c2)N(Cc2cccc(Cl)c2)C(=O)c2ccccc2S3(=O)=O)CC1 (stereo not given)	-18%
CCOc1ccc(CCNC(=O)Cn2ncc3c([nH]c4ccccc43)c2=O)cc1OCC	-3%
Cc1nn(-c2ccccc2)c2nc(C3CC3)cc(C(=O)Nc3cccc(F)c3)c12	u
O=c1cc(-c2ccccc2)c2ccc3c(c2o1)CN(Cc1ccccc1)CO3	-17%
Cc1ccc(O)c(NC(=O)COCc2cc(-c3ccco3)on2)c1	1%

Of the compounds above, 6 have a furan ring, fused or not:
SMILES	miR-21 reporter
Cc1ccc2c(CNCc3ccc(C)o3)c(C(=O)O)n(Cc3ccc(F)cc3)c2c1	8%
O=C(Nc1ccc(F)cc1)c1ccc(Cn2nc(N3CCN(c4ccccc4)CC3)ccc2=O)o1	u
CCOCCCNC(=O)c1c(NC(=O)Cc2coc3ccc(C)cc23)sc2c1CCC2	5%
COc1ccc(C(CNC(=O)c2oc3ccc(C)cc3c2C)N2CCOCC2)cc1 (stereo not given)	-6%
COc1ccc(-c2noc(CNC(=O)c3ccco3)n2)cc1	-16%
Cc1ccc(O)c(NC(=O)COCc2cc(-c3ccco3)on2)c1	1%

Next part:
SMILES	miR-21 reporter
CCN(CCCNC(=O)c1cc2c(=O)n(CC)c3ccccc3c2s1)Cc1ccccc1	3%
COc1ccc(N2CCN(C(=O)C3CCCN(C(=O)c4cc5sccc5n4C)C3)CC2)cc1 (stereo not given)	u
O=C(CSc1oc(-c2ccco2)nc1S(=O)(=O)c1ccccc1)c1ccc(Cl)cc1	8%
Cc1cc(NC(=O)CCS(=O)(=O)c2cc3c4c(c2)CCN4C(=O)CC3)ccc1Br	10%
COc1ccc(CCNC(=O)CCSCc2ccccc2Cl)cc1OC	-8%
CCOc1ccc(-c2nonc2NC(=O)c2oc3cc(C)c(C)cc3c2C)cc1OCC	4%
CCN(CC)C(=O)c1sc2c(c1C)c(=O)n(-c1ccc(Cl)c(Cl)c1)c(=O)n2Cc1cc(=O)n2ccccc2n1	-7%
COc1ccc(CCn2c(=O)c3ccccc3n(CC(=O)Nc3cccc(C)c3)c2=O)cc1OC	-6%
O=C(NCCc1ccccc1)c1ccc2c(c1)N(Cc1ccc(Cl)cc1)C(=O)c1ccccc1S2(=O)=O	-15%
Cc1ccc(CSc2nnc([C@@H](N)C(C)C)o2)cc1	-18%
CCOc1ccc(NC(=O)CSc2nc(=O)[nH]c3c2CCC3)cc1	6%
Cc1ccc(N2C(=O)CSC23C(=O)N(CC(=O)NC2CCCCC2)c2ccccc23)cc1C (stereo not given)	-1%
COc1ccc(-c2nc(CSc3nnc(C)n4c3cc3oc(C)cc34)c(C)o2)cc1OC	-3%
